Screens from PubChem BioAssay.
GALR2 agonist = GALR2 (human) receptor agonism | 0.48% of 140,000 active | activation, %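 (tested at 5 µM)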 | GALR2-expressing cells, agonist activation read-out;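 active = above mean plus 3 SD of all compounds, about 5% in these data, not always enough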;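 note: 0% = vehicle buffer wells and 100% = reference agonist at full effect; tested in CHO reporter cells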
Target sequence (O43603 whole entry, looked up): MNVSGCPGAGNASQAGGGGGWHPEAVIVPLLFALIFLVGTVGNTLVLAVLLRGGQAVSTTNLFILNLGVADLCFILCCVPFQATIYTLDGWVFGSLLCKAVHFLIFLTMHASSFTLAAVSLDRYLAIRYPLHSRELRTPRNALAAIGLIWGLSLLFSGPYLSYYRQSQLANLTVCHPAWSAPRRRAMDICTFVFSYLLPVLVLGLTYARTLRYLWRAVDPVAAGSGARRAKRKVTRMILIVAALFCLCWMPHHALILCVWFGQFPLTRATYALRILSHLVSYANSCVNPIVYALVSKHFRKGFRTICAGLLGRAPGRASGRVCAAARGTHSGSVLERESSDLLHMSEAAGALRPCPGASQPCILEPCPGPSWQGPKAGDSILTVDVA
INS promoter inh = TRM-6 insulin promoter activity inhibition | AID 1273 | TRM-6 cells (human fetal islet line), insulin promoter-eGFP reporter, imaging; reporter expression induced with tamoxifen | 0.9% of 130,000 active | inhibition, % at 2 µM;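 active = inhibition above the mean plus 3 SD, with well images judged a real hit on visual review, cut at about 60% in these data, passing the limit was not always enough; inconclusive = inhibition over the cutoff but images rejected on review; inactive = inhibition not above the cutoff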
HSV augment = HSV replication enhancement | 0.005% of 220,000 active | HSV replication augmentation in cells, fold increase | maximum fold increase;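 active = peak rise of 1.5-fold or more in the series; inconclusive = self-fluorescent or not available for retest; tested in PC3 cells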;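 note: first round at 10 µM; read as green reporter fluorescence; hits show the peak of a series up to 25 µM; 1 = signal of infected wells without compound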
PKD1 inh = PKD1 (human) kinase inhibition. PKD1 kinase fluorescence polarization assay. inhibition, %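 (about 10 µM by stock and volumes)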. 0.056% of 200,000 active. AID 797;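 active = inhibition of 50% or more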;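 note: controls were vehicle for no effect and a reference inhibitor for full effect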
RGS16-Gao = RGS16-Galphao interaction regulator (human). O15492+P09471. bead-based flow cytometry RGS16-Galphao binding, fluorescence; actives lie on both sides. binding response (% of control), % at 10 µM. 0.38% of 220,000 active;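 active = below 25% or above 175%, edge rows of some plates excepted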;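 note: Galphao activated by GDP with aluminum fluoride before binding; 100% = wells without compound and 0% = beads without RGS; some results beyond the cut were filed as inactive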
Target sequence (O15492 whole entry, looked up): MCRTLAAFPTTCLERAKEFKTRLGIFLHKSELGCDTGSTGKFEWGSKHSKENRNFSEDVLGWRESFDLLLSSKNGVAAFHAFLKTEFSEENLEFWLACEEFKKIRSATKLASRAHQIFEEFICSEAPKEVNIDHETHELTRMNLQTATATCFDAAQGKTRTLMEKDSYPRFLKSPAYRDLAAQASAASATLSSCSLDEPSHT
Target sequence (P09471 whole entry, looked up): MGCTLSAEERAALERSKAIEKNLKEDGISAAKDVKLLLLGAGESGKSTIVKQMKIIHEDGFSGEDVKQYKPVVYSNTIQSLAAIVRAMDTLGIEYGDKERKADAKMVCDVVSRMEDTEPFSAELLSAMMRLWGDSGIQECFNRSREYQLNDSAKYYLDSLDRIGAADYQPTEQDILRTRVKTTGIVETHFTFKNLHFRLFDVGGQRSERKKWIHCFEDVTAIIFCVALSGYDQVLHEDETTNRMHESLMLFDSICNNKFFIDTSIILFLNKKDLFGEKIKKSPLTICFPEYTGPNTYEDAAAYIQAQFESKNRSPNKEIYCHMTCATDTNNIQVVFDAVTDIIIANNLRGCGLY
INS promoter inh cell count = further read-out of INS promoter inh, marked with its call; normalized cell count, %; measured here: cell count, toxicity; reference of the scale not given here;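 cells exposed to compound for 48 h; stained nuclei by imaging scaled within each plate; lower means fewer cells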
HSV augment primary fold = also measured in HSV augment; calls as there; fold increase; compound at 10 µM; measured here: primary screen fold increase 10 uM; tested in PC3 cells;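 GFP signal in the first replicate; 1 = infected wells without compound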
* hit, by the source's call; i = inactive; ? = inconclusive; . = not tested or not shown.

molecule | GALR2 agonist | INS promoter inh | INS promoter inh cell count | HSV augment | HSV augment primary fold | PKD1 inh | RGS16-Gao
O=C(Cn1[nH]c(=O)c2ccccc2c1=O)OCC(=O)N(Cc1ccccc1)Cc1ccccc1 | -3.6 | 48 | 102 | i | 0.94 | -1 | 96
O=c1[nH]c(CS(=O)(=O)c2ccccc2)nc2ccccc12 | 0.1 | -6 | 131 | i | 0.91 | 2 | 82
CNc1ccc2nnc(C(F)(F)C(F)(F)C(F)(F)F)n2n1 | . | . | . | i | 0.99 | 1 | 100
CCOC(=O)/C(C#N)=C1\CC2CCC1(C)C2(C)C (stereo not drawn) | . | 62 | 59 | i | 1.1 | 3 | 99
FC(F)(F)c1cccc(CN2CCC(c3cc(-c4cccs4)n[nH]3)CC2)c1 | . | -36 | 194 | i | 0.83 | -3 | 113
COc1cc(C(=O)Nc2nc(C)c(Cc3ccc4c(c3)OCO4)s2)cc(OC)c1OC | -2.4 | -67 | 94 | i | 0.63 | 0 | 48
Cc1onc(-c2ccccc2)c1C(=O)Nc1sc2c(c1C#N)CCC2 | -0.6 | . | . | i | 0.7 | -7 | 114
CN=C(Nc1ccccc1OC)SC1CC(=O)N(c2ccc(C(=O)OC)cc2)C1=O (stereo not drawn) | -2.4 | 58 | 85 | i | 0.98 | 0 | 113
CN(C)S(=O)(=O)c1ccc(NC(=O)Cc2ccc(S(=O)(=O)N3CCOCC3)s2)cc1 | . | 31 | 84 | i | 0.99 | 4 | 101
COCCNC(=S)Nc1ccc(Cl)c(Cl)c1 | . | 6 | 119 | i | 1.2 | 6 | 100
N#Cc1c(Cl)nc(SCc2ccccc2)nc1-c1ccccc1 | -0.8 | 32 | 85 | i | 0.88 | -17 | 79
CC(C)=CCCC(C)NC(=O)NC1CCCCC1 (stereo not drawn) | -1.6 | 53 | 89 | i | 0.96 | 5 | .
Cn1cnc([N+](=O)[O-])c1S(=O)(=O)c1ccc(Cl)cc1 | -1.4 | 7 | 101 | i | 0.5 | -9 | 98
Cc1csc(N)n1 | -1.3 | -67 | 156 | i | 0.93 | 6 | 102
O=C(Nc1ccc(Cl)cc1)/C(=C/c1ccc([N+](=O)[O-])cc1)c1nc2ccccc2s1 | . | . | . | i | 0.66 | -3 | 99
Cc1cnc(NC(=O)CSc2nnc(C)s2)s1 | -1.7 | 21 | 95 | i | 0.8 | -3 | 106
COC(=O)Cc1ccc(N(Cc2ccccc2F)S(=O)(=O)c2ccc(Br)cc2)cc1 | -2.8 | 14 | 101 | i | 1 | -6 | 75
Cc1cc(Cl)ccc1NC(=O)/C=N/O | . | . | . | i | 0.91 | . | 99
CCCN(CCC)C(=O)Nc1cc(Cl)ccc1OC | . | . | . | i | 1.1 | . | 75
O=C1CN(C(=O)COc2ccc(Br)cc2F)c2ccccc2N1 | -0.7 | . | . | i | 1.1 | -5 | 98
Cc1cc(S(=O)(=O)N2CCN(c3ccc(F)cc3)CC2)c(C)s1 | -1.5 | . | . | i | 0.86 | 1 | 103
COc1c(C)cc(C(=O)C2CCCN(C(=O)c3cc(C)nc(C)n3)C2)cc1C (stereo not drawn) | . | -20 | 141 | i | 0.95 | -5 | 95
CC(=O)NC1=C(C#N)C(c2ccccc2)c2c(ccc3ccccc23)O1 (stereo not drawn) | 0.2 | . | . | i | 1.2 | 6 | 100
O=C1NC(Nc2ccccn2)(C(F)(F)F)C(=O)N1c1ccc(F)cc1 (stereo not drawn) | 0.4 | -353 | 70 | i | 1.1 | -4 | 98
COCCNc1nc(C(C)(C)C)nc2c1nnn2Cc1ccccc1Cl | -0.7 | 8 | 86 | i | 1.1 | -4 | 102
COC(=O)c1ccc(NC(=O)C2CCCN2S(=O)(=O)c2ccc(C)cc2)cc1 (stereo not drawn) | -1.8 | . | . | i | 1.1 | 0 | 103
CC(=O)Nc1ccc(NC(=O)CNC(=O)COc2ccccc2)cc1 | . | . | . | i | 1 | -8 | 102
Cn1c(N)c(C(=O)COC(=O)CCc2c[nH]c3ccccc23)c(=O)n(C)c1=O | 0.6 | -3 | 102 | i | 0.95 | -12 | 143
Cc1cc(NC(=O)c2cc3n(n2)C(C(F)(F)F)CC(c2ccc(Cl)c(Cl)c2)N3)no1 (stereo not drawn) | -1.6 | 32 | 106 | i | 0.94 | -20 | 116
CC(=O)c1cccc(Nc2nc(-c3ccccc3)cs2)c1 | . | -32 | 125 | i | 0.99 | -1 | 100
COc1ccc(/C(O)=C2\C(=O)C(=O)N(CC3CCCO3)C2c2cc(OC)ccc2OC)cc1 (stereo not drawn) | -0.8 | . | . | i | 0.97 | 5 | 100
O=C(NCc1ccccc1)/C(=N\O)c1ccccc1 | -2.3 | -21 | 116 | i | 0.96 | 2 | 104
C=CCN(c1ccc(C(=O)NCCc2ccccc2)cc1)S(C)(=O)=O | -1.4 | 0 | 103 | i | 0.98 | -2 | 102
C=CCN(c1ccccc1)S(=O)(=O)c1cccc(C(=O)OCC(=O)NCCOC)c1 | . | . | . | i | 0.73 | . | 102
CCN(CC)CCN1C(=O)C(=O)/C(=C(/O)c2c(C)[nH]c(C(=O)OC)c2C)C1c1cccs1 (stereo not drawn) | 0.3 | 0 | 158 | i | 0.81 | 11 | 100
Cc1cc(=O)oc(C)c1C(=O)Nc1cccc(F)c1 | . | . | . | i | 1.2 | . | 107
CC(c1cccs1)N(C)Cc1nc(CCc2ccccc2)no1 (stereo not drawn) | . | . | . | i | 1.1 | -8 | 92
C=CCc1cccc2cc(C(=O)Nc3ccc(CC(=O)O)cc3)c(=O)oc12 | . | . | . | i | 0.9 | -4 | 103
O=C(N/N=C/c1cccc(F)c1)c1cc(-c2ccco2)nc2ccccc12 | -0.2 | 42 | 57 | i | 0.75 | -8 | 87
COCC(=O)Nc1cc(C)c2c(=O)oc3ccccc3c2n1 | . | . | . | . | . | 1 | 108
CC(C)(C)N1C(=O)c2ccc(C(=O)Nc3nccs3)cc2C1=O | -1.5 | . | . | i | 0.81 | 6 | 102
Cc1cccc(NC(=O)COC(=O)c2ccccc2-c2nc3ccccc3s2)c1C | -1.0 | . | . | i | 1.1 | -14 | 100
CCn1c(C)cc2c(c1=O)C(c1ccncc1)C(C#N)=C(N)O2 (stereo not drawn) | -1.2 | . | . | i | 1.1 | -2 | 104
O=C(Cc1ccccc1)N/N=C/c1ccccc1F | 0.3 | . | . | i | 1.2 | 3 | 98
O=C(NCCCN1CCCC1=O)c1cc(-c2cccnc2)nc2ccc(Cl)cc12 | . | 29 | 83 | i | 0.86 | 5 | 106
CC(C)CNC(=S)NC1CC2CCCC(C1)N2Cc1cccs1 (stereo not drawn) | -1.8 | . | . | i | 0.93 | -9 | 102
CC(=O)Nc1ccccc1OC(=O)N1CCOCC1 | -2.0 | 29 | 117 | i | 0.76 | -9 | 99
CC(=O)N(CC(=O)Nc1sc(C)c(C)c1C(N)=O)Cc1ccccc1 | . | . | . | i | 0.92 | 2 | 109
CCN1CCc2nc3ccccc3c(C(=O)Nc3ccc(F)cc3)c2C1 | . | . | . | i | 0.98 | . | 101
Cc1cc(OCC[N+]2(C)CCCCC2)nc2ccccc12 | -1.4 | . | . | i | 1.1 | -2 | 105

Carrying on.
Results follow in this order: GALR2 agonist, INS promoter inh, INS promoter inh cell count, HSV augment, HSV augment primary fold, PKD1 inh, RGS16-Gao
O=C(c1cccc(C(=O)N2CCN(c3ncccn3)CC2)c1)N1CCN(c2ncccn2)CC1
→ -2.1, 13, 82, ., ., -12, 96
O=C1Cc2ccccc2Sc2ccc(Cl)cc21
→ -3.4, -24, 58, i, 0.83, -6, 100
O=C(Nc1ccc(N2CCOCC2)c(Cl)c1)C1CCCCC1
→ 0.0, ., ., i, 0.75, -4, 7
O=C(c1cc(-c2ccc(F)cc2)on1)N1CCCc2ccccc21
→ ., ., ., i, 0.94, -12, 101
Cc1nc2ccccn2c1C(=O)NCC(C)C
→ -0.2, 0, 112, i, 0.98, -4, 104
CCCCN(C)CCCNC(=O)c1ccc2c(c1)NC(=O)C(N1CCOCC1)S2 (stereo not drawn)
→ -1.5, 68, 142, i, 0.91, -8, 98
COc1cccc(Oc2ccc(N)cn2)c1
→ -2.3, -30, 81, i, 1.2, 0, 101
CC(C)CC(=O)NC1(C(F)(F)F)C(=O)Nc2c1c(=O)[nH]c(=O)n2Cc1ccco1 (stereo not drawn)
→ -0.9, 0, 108, ., ., -5, 100
CNC(=O)N(C1=NCC(C)(C)S1)c1ccc(F)c(Cl)c1
→ -0.9, ., ., i, 0.8, -3, 96
Cc1cc(Br)c(NC(=O)CN(C)CCOc2ccccc2)c(Br)c1
→ ., ., ., i, 1.1, 0, 99
O=C(O)/C=C/C(=O)N1CCN(S(=O)(=O)c2cccc(C(F)(F)F)c2)CC1
→ ., ., ., i, 0.93, -5, 105
CCCN1C(=O)/C(=C/C=C2\N(CC)c3ccccc3C2(C)C)SC1=S
→ 0.2, -18, 135, ?, ., 24, 118
COC(=O)Cc1csc(Nc2c(C)n(C)n(-c3ccccc3)c2=O)n1
→ -0.8, ., ., i, 1.1, 2, 79
C=CCN1C(=O)C(Cc2ccc(OC)cc2)S/C1=N/N=C/c1ccco1 (stereo not drawn)
→ -0.1, 26, 47, i, 1.1, -8, 109
FC(F)(F)c1cccnc1N1CCN(c2ncnc3nc[nH]c23)CC1
→ -0.2, -43, 53, i, 0.99, -1, 105
O=C(CNC(=O)C12CC3CC(CC(C3)C1)C2)N1CCN(S(=O)(=O)/C=C/c2ccccc2)CC1
→ -1.2, ., ., i, 0.99, -1, 101
O=C(Cc1ccccc1)Nc1nnc(SCC(=O)NC2CCCC2)s1
→ ., 33, 86, i, 0.93, 5, 104
Cc1cc(C)nc(Oc2ccc(Br)cc2)n1
→ ., ., ., i, 0.98, ., 105
Cc1ccc(S(=O)(=O)N(C)C)cc1NC(=O)COC(=O)c1ccc(Cl)cc1
→ ., ., ., i, 1, 1, 105
Cc1ccc(CN2CCNC2=O)cc1
→ 0.5, -3, 130, i, 1.3, 0, 101
O=C(/C=C\c1ccco1)Nc1cc([N+](=O)[O-])ccc1F
→ -0.1, -72, 18, i, 0.48, -7, 102
Cc1ccc(C(=O)N2CCCC(c3ccc(Cl)cc3)=N2)cc1
→ ., -83, 104, i, 0.87, -2, 105
O=C(Nc1ccccc1C(=O)N1CCOCC1)C1COc2ccccc2O1 (stereo not drawn)
→ -0.7, -186, 155, i, 1.1, -3, 103
Cc1ccc(Nc2nc(N)nc(-c3oc4ccccc4c3C)n2)cc1
→ ., ., ., i, 0.66, 3, 98
O=C(O)c1cc2c(cc1Br)OCCCO2
→ -1.9, ., ., i, 1.2, -5, 122
CCCCC(=O)NC(=S)Nc1cccc(NC(=O)CC)c1
→ -1.0, 34, 81, i, 1, -14, 102
COc1cc(CNc2cccc(C(=O)O)c2)cc(Br)c1OCC(=O)NC(C)(C)C
→ -0.8, -57, 83, i, 0.96, -7, 77
O=C1CC(Cc2ccccc2)C(=O)N1c1ccccn1 (stereo not drawn)
→ ., ., ., i, 0.96, ., 92
Cc1cc(NC(=O)CCC(=O)N(Cc2ccco2)C(C(=O)NC2CCCCC2)c2ccccc2)no1 (stereo not drawn)
→ -0.4, -74, 58, i, 0.99, -1, 98
O=C(Nc1ccccc1Cl)c1ccc(S(=O)(=O)N2CCOCC2)cc1
→ -2.1, ., ., i, 0.86, 2, 103
COC(=O)C(C(=O)OC)C(C(=O)OC)C(C(=O)OC)C(=O)OC
→ -2.7, 29, 109, i, 0.91, -9, 38
Cc1cc(N2CCN(C)CC2)nc2ccc(NC(=S)N3CCC4(CC3)OCCO4)cc12
→ ., ., ., i, 0.88, -11, 94
CSc1cccc(NC(=S)N(CCC(C)C)C2CCN(C(C)C)CC2)c1
→ ., -13, 71, i, 0.92, -7, 208

Four entries from above, with each value named:
> Cc1cc(Br)c(NC(=O)CN(C)CCOc2ccccc2)c(Br)c1
  GALR2 agonist: .; INS promoter inh: .; INS promoter inh cell count: .; HSV augment: i; HSV augment primary fold: 1.1; PKD1 inh: 0; RGS16-Gao: 99

> O=C(O)/C=C/C(=O)N1CCN(S(=O)(=O)c2cccc(C(F)(F)F)c2)CC1
  GALR2 agonist: .; INS promoter inh: .; INS promoter inh cell count: .; HSV augment: i; HSV augment primary fold: 0.93; PKD1 inh: -5; RGS16-Gao: 105

> CCCN1C(=O)/C(=C/C=C2\N(CC)c3ccccc3C2(C)C)SC1=S
  GALR2 agonist: 0.2; INS promoter inh: -18; INS promoter inh cell count: 135; HSV augment: ?; HSV augment primary fold: .; PKD1 inh: 24; RGS16-Gao: 118

> COC(=O)Cc1csc(Nc2c(C)n(C)n(-c3ccccc3)c2=O)n1
  GALR2 agonist: -0.8; INS promoter inh: .; INS promoter inh cell count: .; HSV augment: i; HSV augment primary fold: 1.1; PKD1 inh: 2; RGS16-Gao: 79
